Yeast UUG start – alters start codon recognition fidelity in yeast. S. cerevisiae UUG-firefly luciferase reporter, luminescence/redox ratio. activity score, % at 18.7 µM. 0.13% of 350,000 active. AID 602363;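 active = replicate mean at a twofold rise or more, about +100% in these data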;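 note: firefly luciferase made from a UUG start codon reports start codon fidelity; reporter light over untreated wells divided by growth signal over untreated wells; some hits fall short of that in this replicate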
CSC inhib – cancer stem cell inhibition | cancer stem cell-like cells viability, luminescence | inhibition, % at 7.5 µM | 1.1% of 300,000 active | AID 2717;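 active = mean at 75% or more and at least half the replicates too; tested in HMLE shEcad cells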;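 note: 0% = median of negative and 100% = median of positive control wells; the first replicate is given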
eIF4H FP inh – inhibitors of RNA binding by human eIF4H; inhibition, % at 35 µM; Q15056; eIF4H fluorescence polarization binding assay; 0.94% of 290,000 active; AID 2012;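 active = 50% or more with normal probe brightness, or confirmed in later tests; about a fifth of its hits are not listed in these tables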;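 note: calls also rest on retests at 20 µM and on dose response follow-up; 0% = protein and probe with vehicle and 100% = probe without protein; strong numbers were not always called active; many hits fall short of the cut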
PABP polyA inh – PABP-poly(A) binding inhibition. P11940. PABP-poly(A) RNA binding, fluorescence polarization. inhibition, % at 35 µM. 1% of 290,000 active;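 active = 50% or more with normal probe brightness, or confirmed in later tests; about a fifth of its hits are not listed in these tables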;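 note: calls also rest on retests at 20 µM and on dose response follow-up; controls were probe without protein and protein plus probe with vehicle; some compounds called inactive have numbers as strong as hits; many hits fall short of the cut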
Env fusion inh – HIV envelope-mediated fusion inhibition. 1.1% of 360,000 active. inhibition, % at 12.3 µM. HeLa-JRFL Env/CEM21 cell fusion, luciferase;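 active = mean replicate inhibition score of at least 50 and every replicate individually at or above 50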;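 note: 0% = plate neutral controls and 100% = maraviroc near 300 nM; one replicate is shown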
Rce1 inh – blocks yeast Ras-converting enzyme; Q03530; yeast membranes, quenched prenylated peptide cleavage fluorescence; calls only; 0.27% of 290,000 active; AID 2563;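 active = fall in fluorescence gain of 50% or more versus controls, with final raw signal at or below 3038400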;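 note: plate controls were neutral control wells for no effect and wells lacking membranes for full effect; tested at 10 µM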
Target sequence (Q03530 whole entry, looked up): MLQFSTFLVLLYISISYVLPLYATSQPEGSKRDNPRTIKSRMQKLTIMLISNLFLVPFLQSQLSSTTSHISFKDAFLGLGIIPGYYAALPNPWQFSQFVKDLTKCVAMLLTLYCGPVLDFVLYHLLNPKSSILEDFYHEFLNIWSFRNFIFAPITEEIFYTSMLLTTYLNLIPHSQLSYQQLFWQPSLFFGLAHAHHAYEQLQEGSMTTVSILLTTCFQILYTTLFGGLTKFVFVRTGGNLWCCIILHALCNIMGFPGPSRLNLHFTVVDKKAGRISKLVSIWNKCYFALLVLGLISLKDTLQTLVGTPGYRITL
MT1-MMP act inh – blocks activation of human MT1-MMP. AID 651647. GFP/RFP ratio change, % at 20 µM. P50281. 0.061% of 360,000 active. HT1080 RFP-PRO-GFP cells, GFP/RFP ratio fluorescence, overnight; percent of plate control window, DMSO zero;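 active = GFP/RFP ratio change of at least 30% with cell ATP level not reduced by more than half and red fluorescence within 50% of control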; note: strong numbers were not always called active
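Assay system: HT1080 RFP-PRO-GFP cells. Benchmarks: DMSO vehicle wells and RFP-L50D-GFP reporter cell wells. Times: overnight cell settling, then overnight compound exposure, 37 °C, 5% CO2. Compound: 20 µM single dose, 1% DMSO. Read-out basis: GFP/RFP fluorescence ratio.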
eIF4H FP inh retest – recorded beside eIF4H FP inh, whose call it bears; inhibition, %; compound at 20 µM; confirmation average;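 mean of two retest wells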
PABP polyA inh retest – also measured in PABP polyA inh; calls as there; inhibition, %; compound at 20 µM; confirmation repeats;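 mean of two retest wells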
MT1-MMP act inh RFP – recorded beside MT1-MMP act inh, whose call it bears; RFP signal change, %; measured here: RFP expression control read;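 0 = vehicle wells; hits needed this value within 50% of zero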
* marks the source's active call; other numbers are inactive results; i = inactive; . = not tested or not shown. Only part of the results is shown. The share of hits here may be higher or lower than overall.

SMILES | Yeast UUG start | CSC inhib | eIF4H FP inh | PABP polyA inh | Env fusion inh | Rce1 inh | MT1-MMP act inh | MT1-MMP act inh RFP | others
Cc1ccc(NC(=O)COC(=O)CCn2c(C)csc2=O)c([N+](=O)[O-])c1 | . | -9.6 | . | . | -9.9 | i | 2.0 | 2.7
O=C1NC(=O)/C(=C\c2ccc(Cl)nc2)S1 | . | 2.5 | -3.6 | -3.1 | -6.6 | i | 0.8 | -1.8
Cc1cccc(NC(=O)C(c2ccccc2Cl)N2CCOCC2)c1 (stereo not drawn) | . | 8.0 | 6.3 | 1.6 | 4.7 | i | -0.3 | -1.0
C=CCc1cccc(CNc2nc3ccccc3n2C)c1O | 5.9 | 8.7 | -13.2 | 0.3 | 36.9 | i | 8.7 | -1.0
O=C1c2cccc3cccc(c23)C(=O)N1Cc1ccccc1 | -32.4 | -8.5 | 3.6 | -5.2 | 10.3 | i | 2.9 | 3.1
COc1cccc(C(=O)C2CCCN(Cc3cn(C)nc3-c3ccccc3)C2)c1 (stereo not drawn) | . | 2.8 | -2.8 | 5.1 | 14.7 | i | -1.1 | 0.5
Cc1noc(C)c1C(=O)N1CCC1(C)C(=O)NS(=O)(=O)c1cccc(F)c1 (stereo not drawn) | -15.1 | . | . | . | 0.2 | . | 1.3 | 5.6
Cc1cccc(-c2noc(CCC(=O)NCCc3ccccc3)n2)c1 | 2.5 | 0.9 | -13.5 | -7.1 | 1.8 | i | 6.7 | 0.6
CN(Cc1ccsc1)C(=O)Cn1cc(Br)ccc1=O | -14.9 | -7.8 | -1.3 | 15.3 | -15.2 | i | 2.3 | 1.7
CC12CCC(C(=O)Nc3nccs3)(OC1=O)C2(C)C (stereo not drawn) | . | 3.3 | 6.6 | -0.5 | -26.6 | i | -2.4 | -0.4
CCCc1c2ccccc2nc2ccccc12 | -5.5 | 0.4 | -0.7 | -8.9 | 5.1 | i | -1.1 | -7.1
CC(C)(C)C(=O)NC(=S)Nc1ccccc1C(=O)Nc1ccccc1 | -12.8 | -15.9 | -11.7 | -5.1 | -6.9 | i | 4.5 | 0.9
COc1ccc(-c2sc3cc4c(cc3c2C#CCO)OCO4)cc1 | 1.6 | 11.2 | . | . | -36.4 | . | 2.6 | -24.1
CC1CCC2(CC1)NC(=O)N(CC(=O)c1cccn1C)C2=O (stereo not drawn) | -8.1 | -5.6 | 8.7 | 0.2 | . | i | 9.4 | 0.6
Cc1cccc(C)c1N1CCN(CCn2c(=S)[nH]c3ccccc3c2=O)CC1 | -12.8 | -9.9 | -1.4 | -0.9 | -4.8 | i | -0.8 | -0.1
CCOC(=O)/C=C1/SCC(=O)N1CC(=O)Nc1ccccc1OC(F)F | -14.8 | . | . | . | -5.3 | . | -8.9 | 1.6
O=C(NC1CCS(=O)(=O)C1)C1CCCN(S(=O)(=O)c2ccc(Cl)cc2)C1 (stereo not drawn) | . | -3.5 | 1.5 | -10.2 | 12.0 | i | 1.6 | 6.4
COc1ccc(C2NC(=O)c3n[nH]c(C)c32)c(OC)c1 (stereo not drawn) | -15.9 | -17.1 | -2.6 | -9.4 | -64.7 | i | 2.1 | 5.6
Cc1cccc(NS(=O)(=O)c2ccc(C(=O)NCC(c3ccccc3)N(C)C)cc2)c1C (stereo not drawn) | -8.7 | 6.6 | -6.2 | -11.6 | -3.3 | i | -3.9 | -9.8
Cc1nc(N2CCCCC2)sc1C(=O)c1ccc(Cl)c([N+](=O)[O-])c1 | . | 58.3 | 2.3 | 21.1 | . | i | . | .
C=CCN(c1ccc(C(=O)N2CCN(c3ccc(F)cc3)CC2)cc1)S(C)(=O)=O | 1.0 | 5.8 | 0.6 | -5.8 | . | i | 2.0 | -2.9
CC(C)(C)c1ccc(OCCNC(=S)NC(=O)c2cccnc2)cc1 | . | 19.9 | 0.1 | 0.0 | -1.8 | i | 3.9 | 6.1
COc1cc(-c2c(C#N)c(=O)[nH]c3c2c(C)nn3-c2ccccc2)ccc1O | -13.9 | -11.7 | -0.2 | 38.2 | -66.6 | i | 0.7 | 0.3
COc1ccc(Cn2nnnc2CN2CCc3ccccc32)cc1 | . | -6.7 | 0.1 | 5.2 | . | i | -5.4 | 1.4
CCCCNC(=O)CN1C(=O)COc2ccc(S(=O)(=O)N3CCCCCC3)cc21 | 11.3 | -31.7 | -6.7 | -5.0 | 8.8 | i | 1.8 | 5.1
CN1CCN(C(CNS(=O)(=O)c2ccc(Br)cc2)c2ccc3c(c2)OCO3)CC1 (stereo not drawn) | -1.1 | 11.0 | . | . | -11.3 | i | -2.5 | 2.8
COc1ccc(C(=O)Nc2ccc3ccccc3c2)cc1OC | -10.9 | 2.5 | 0.5 | 12.3 | -104.3 | i | -0.1 | -3.4
Cc1ccc(-n2nnnc2-c2cccnc2)cc1 | -10.5 | -3.2 | 0.1 | -3.4 | -22.1 | i | 1.2 | 3.4
O=C(Nc1nc2c(s1)CCCC2)c1ccc(N2C(=O)CCC2=O)cc1 | -9.6 | . | 5.7 | -2.2 | -317.8 | i | 0.8 | 1.7
CC(C)CC1Nc2ncnc(N3CCN(c4ccccc4)CC3)c2N(Cc2ccc(Cl)cc2)C1=O (stereo not drawn) | -11.8 | 13.5 | . | . | -25.5 | i | -13.2 | -11.9
CC(C)Cc1csc(=S)[nH]1 | 13.4 | . | . | . | -2.0 | . | 4.3 | 7.4
O=C(/C=C/c1c(Cl)cccc1Cl)Nc1ccncc1 | -10.2 | 19.2 | -9.3 | -3.1 | -74.8 | i | -2.5 | -15.1
COc1ccc(C2Nc3ccccc3C(=O)N2NC(=O)c2ccccc2)cc1OC (stereo not drawn) | -11.9 | -9.0 | 3.3 | 0.1 | 11.3 | i | -4.3 | -0.1
COc1ccc(NC(=O)C2CCN(S(C)(=O)=O)CC2)cc1 | -6.2 | -3.7 | -6.6 | -10.1 | . | i | 1.0 | 4.8
COc1ccc(/C=N/NS(=O)(=O)c2ccccc2)cc1OS(=O)(=O)c1ccccc1 | -6.5 | 10.2 | -0.6 | -2.8 | . | i | 0.4 | 0.4
CCOC(=O)c1c(NC(C)=O)sc(/C(C)=N/Nc2ccc(C(=O)O)cc2)c1C | 11.4 | -8.9 | 1.9 | 16.8 | 4.1 | i | -5.0 | -0.3
Clc1ccc(COc2ccccc2CNCc2cccnc2)cc1 | -17.7 | 1.4 | -8.3 | 7.4 | . | i | -0.3 | -0.3
Cc1ccccc1S(=O)(=O)Cc1ccc(C(=O)NCc2cccs2)o1 | . | -8.0 | -7.9 | 2.5 | -59.9 | i | -0.3 | 1.0
Cc1c(C(=O)NCC(C)(C)N2CCOCC2)oc2ccccc12 | -3.1 | -15.3 | . | . | . | . | 3.2 | 6.1
Cc1sc2nc(CSc3nnc(Cc4cccs4)n3C3CCCCC3)[nH]c(=O)c2c1C | -24.5 | 2.1 | 25.5 | 56.8 | . | i | -29.5 | -5.1 | eIF4H FP inh retest=11.3;PABP polyA inh retest=32.9
COc1ccc(S(=O)(=O)N2CCc3ccccc32)cc1C(=O)NCCc1ccc(S(N)(=O)=O)cc1 | -2.6 | 12.6 | . | . | . | . | -5.2 | 1.6
C=CCn1c(SCC(=O)N2CCOCC2)nc(O)c(Cc2ccccc2)c1=O | -13.7 | . | -8.0 | -5.7 | . | i | 1.7 | -1.3
COc1ccc(/C=C2\N=C(C)OC2=O)cc1[N+](=O)[O-] | . | -1.3 | -5.9 | -8.5 | -3.9 | i | -1.7 | 2.1
Cc1cccc(N(CC(=O)NCc2ccco2)C(=O)CCC(=O)Nc2ccccn2)c1C | -4.6 | -4.2 | 0.7 | 9.2 | -4.4 | i | -2.3 | -1.3
Cc1ccc(SCc2ccc(C(=O)N3CCCCC3)cc2)cc1 | . | 24.0 | -6.2 | 6.9 | 11.4 | i | -6.4 | -9.2
S=C(NCCc1cccc(Cl)c1)NCc1ccccc1 | -36.6 | 5.2 | 7.2 | 1.8 | . | i | 1.1 | 2.2
CC(=O)Nc1ccc(-c2cc(NC(C)=O)n(-c3ccccc3)n2)cc1 | -11.5 | 1.2 | 13.4 | -10.1 | . | i | 2.7 | 1.3
O=C1Nc2ccccc2/C1=C/c1ccccc1F | -22.8 | 18.6 | -0.5 | 4.3 | -3.1 | i | 0.9 | -7.9

The last 4 records of the section before come first, to join the parts.
SMILES | Yeast UUG start | CSC inhib | eIF4H FP inh | PABP polyA inh | Env fusion inh | Rce1 inh | MT1-MMP act inh | MT1-MMP act inh RFP | others
Cc1ccc(SCc2ccc(C(=O)N3CCCCC3)cc2)cc1 | . | 24.0 | -6.2 | 6.9 | 11.4 | i | -6.4 | -9.2
S=C(NCCc1cccc(Cl)c1)NCc1ccccc1 | -36.6 | 5.2 | 7.2 | 1.8 | . | i | 1.1 | 2.2
CC(=O)Nc1ccc(-c2cc(NC(C)=O)n(-c3ccccc3)n2)cc1 | -11.5 | 1.2 | 13.4 | -10.1 | . | i | 2.7 | 1.3
O=C1Nc2ccccc2/C1=C/c1ccccc1F | -22.8 | 18.6 | -0.5 | 4.3 | -3.1 | i | 0.9 | -7.9
Cc1ccc(OC(C)C(=O)N2CCCc3ccccc32)cc1 (stereo not drawn) | . | -1.7 | 6.1 | 4.1 | -46.9 | i | 2.1 | 2.4
COc1ccc(C2N=C(N)N=C(N)N2c2ccccc2OC)cc1OC (stereo not drawn) | -6.5 | 0.6 | -6.1 | -4.6 | -26.0 | . | -7.7 | 9.2
CN=C(Nc1cccc(Cl)c1)SC1CC(=O)N(c2ccc(OC)cc2)C1=O (stereo not drawn) | . | 4.5 | 0.7 | 4.3 | 28.0 | . | 3.2 | 2.3
CSc1ccc(CN(C)CC(=O)N(C)CC(=O)Nc2ccccc2Br)cc1 | -17.8 | . | . | . | 4.9 | . | -2.6 | -0.6
COc1ccc(S(=O)(=O)CCC(=O)NCCc2ccc(C)cc2)cc1 | -12.2 | -8.5 | -6.9 | 1.4 | . | i | 5.2 | 2.7
C=C(C)n1c(=O)n(Cc2ccc(C)cc2)c2ccccc21 | -10.2 | 2.2 | 4.3 | -2.2 | 12.8 | i | -1.8 | -1.4
CC(=O)c1cccc(NC(=O)C2CCN(S(=O)(=O)c3ccccc3)CC2)c1 | 2.3 | -8.3 | -10.2 | -4.1 | -0.1 | i | -0.7 | 0.7
COc1ccc(-n2nc3c(c2NC(=O)COc2ccccc2OC)CS(=O)(=O)C3)cc1 | -7.8 | . | . | . | -21.4 | . | 1.2 | 3.0
NC(=O)c1ccsc1NC(=O)COC(=O)c1ccncc1 | -9.0 | . | . | . | -2.2 | . | -1.1 | -0.9
CNCCOc1ccc(Cl)c(Cl)c1 | -17.4 | 0.5 | 3.0 | 1.5 | 10.5 | i | 6.5 | 4.1
CCOC(=O)NC(NCc1ccccc1)(C(F)(F)F)C(F)(F)F | . | 2.5 | -1.5 | 0.6 | . | i | -8.1 | -1.0
NS(=O)(=O)c1ccc(CCNC(=O)CCc2nc3ccccc3s2)cc1 | -42.4 | -7.1 | 5.7 | 8.2 | -6.8 | i | 0.6 | 5.7
CCOC(=O)c1sc2nc(C)nc(SC(C)C(=O)N(C)c3ccccc3)c2c1C (stereo not drawn) | 11.7 | 9.4 | . | . | 18.6 | . | -5.0 | -5.0
O=C(CNC(=O)c1ccccc1F)OCC(=O)N1CCCc2ccccc21 | . | -3.4 | -2.5 | 5.1 | -119.7 | i | 5.2 | 4.8
CC[C@@H](C)[C@@H](C(=O)N1CCN(C(=O)OC(C)(C)C)CC1)n1cc(CCCCNC(=O)OC(C)(C)C)nn1 | 10.6 | -1.9 | -4.7 | -2.6 | 0.3 | i | 1.3 | -13.1

Screens (PubChem BioAssay)
